RE007 growth inh: less growth of the S. pombe RE007 Vpr strain; Potency, µM (highest dose often 92.2 µM), for inactives: at the top dose activity change, negative = less growth; 360,000 compounds, 0.21% hits; S. pombe RE007 Vpr strain, BacTiter-Glo ATP luminescence, 24 h; control for the full effect not named in the record; active = well fitted falling curve with a large enough effect; inconclusive = small, poorly fitted or top-dose-only effect; inactive = no such curve, though single readings can be large or run the other way;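 also: % is scaled to controls: 0 for no effect and ±100 for the full control effect; nearly all actives have a fitted effect of over 50% in size; the assay follows cell death caused by Vpr and the record does not say whether a fall means rescue or toxicity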
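Fission yeast strain RE007, carrying one chromosomally integrated HIV-1 vpr copy, was seeded at OD 0.01 in PMG+AL medium with 23 nL pinned compound. After 24 h at 30 °C and 99% humidity, viability was read by BacTiter-Glo luminescence.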
Cruzain inh Det: cruzain (T. cruzi) inhibition with detergent; AID 1478; purified cruzain, Z-FR-AMC fluorescence, 0.01% Triton; P25779; Potency, µM, for inactives: max response, negative = inhibition, actives largely listed as inhibitors; 200,000 compounds, 0.43% hits;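 also: plate controls were neutral wells for no effect and buffer without enzyme for full effect; nearly all actives have a fitted effect of over 40% in size; top concentration of the series not given in the record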
Target sequence (P25779 123-467 limits assumed): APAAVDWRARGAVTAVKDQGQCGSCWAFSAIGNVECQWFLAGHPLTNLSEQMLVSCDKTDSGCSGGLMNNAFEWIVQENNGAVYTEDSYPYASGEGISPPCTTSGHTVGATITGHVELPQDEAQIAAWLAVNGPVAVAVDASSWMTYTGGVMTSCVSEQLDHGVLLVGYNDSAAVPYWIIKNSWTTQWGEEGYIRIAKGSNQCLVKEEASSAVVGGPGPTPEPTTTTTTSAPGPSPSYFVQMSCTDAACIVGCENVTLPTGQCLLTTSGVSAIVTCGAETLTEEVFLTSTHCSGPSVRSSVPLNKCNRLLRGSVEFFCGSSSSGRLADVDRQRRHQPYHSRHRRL
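Read-out: AMC fluorescence (360 nm excitation, 450 nm emission), four reads over 2 min, first-to-third difference used. Conditions: cruzain 1.5 nM, Z-FR-AMC 2 uM, pH 5.5 acetate, 5 mM DTT, 0.01% Triton X-100.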
NS1 function inh: inhibitors of influenza NS1 protein function | AID 2326 | S. cerevisiae slowed by influenza A NS1, growth recovery by OD600 | Potency, µM (highest dose often 46.1 µM), inactives show top-dose activity, positive = more growth | 270,000 compounds, 0.4% hits; active means well fitted rising curve with a large enough effect; inconclusive means small, poorly fitted or top-dose-only effect; inactive means no such curve, though single readings can be large or run the other way; also: nearly all actives have a fitted effect of over 50% in size
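Recovery from NS1-induced slow growth read by OD600 in budding yeast switched to galactose assay medium (pH 6.0, -URA) at 1:100 dilution. Compound 23 nl per well; the matching strain lacking NS1 serves as control.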
Marburg entry inh: Marburg virus entry inhibition; Marburg virus pseudotyped entry inhibition, cell reporter; control for the full effect not named in the record; about a third of the inactives were read at about 46 µM; AID 540276; 300,000 compounds, 1.8% hits; Potency, µM (doses to about 37.8 µM), inactives show at the highest dose activity change, negative = inhibition, usual class: inhibitors; active = well fitted inhibition curve with a large enough effect; inconclusive = small, poorly fitted or top-dose-only effect, or effect the other way; inactive = flat fitted curve, though single readings scatter; tested in HEK293 cells; about a fifth of its hits are not listed in these tables; also: % is scaled to controls: 0 for no effect and ±100 for the full control effect; luciferase read-out
StopGo reporter: FMDV 2A StopGo reporter, luciferase signal. human cells with a luciferase reporter of 2A StopGo recoding; control for the full effect not named in the record. Potency, µM (top dose mostly 57.9 µM), for the others: at the highest dose signal change, negative = less light. 410,000 compounds, 1.2% hits. AID 1159524; active = well fitted falling curve with a large enough effect; inconclusive = small, poorly fitted or top-dose-only effect; inactive = no such curve, though single readings can be large or run the other way; tested in HEK293T cells; also: % is scaled to controls: 0 for no effect and ±100 for the full control effect; nearly all actives have a fitted effect of over 45% in size; luciferase light after 4 h
LASV entry inh: inhibitors of Lassa virus binding or cell entry. 300,000 compounds, 1.2% hits. Potency, µM (titrated, usually from 37.9 µM), for inactives: at the top dose activity change, negative = inhibition, hits mostly inhibitors. Lassa virus pseudotype entry inhibition, cell reporter; control for the full effect not named in the record; active means well fitted inhibition curve with a large enough effect; inconclusive means small, poorly fitted or top-dose-only effect, or effect the other way; inactive means flat fitted curve, though single readings scatter; tested in HEK293 cells; also: % is scaled to controls: 0 for no effect and ±100 for the full control effect; nearly all actives have a fitted effect of over 50% in size; luciferase read-out
Cruzain inh noDet: inhibitors of Trypanosoma cruzi cruzain without detergent; P25779; Potency, µM, for the others: max response, negative = inhibition, actives largely listed as inhibitors; purified cruzain, Z-FR-AMC fluorescence, no detergent; 200,000 compounds, 2.3% hits;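 also: plate controls were enzyme without inhibitor for no effect and buffer without enzyme for full effect; nearly all actives have a fitted effect of over 40% in size; top concentration of the series not given in the record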
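Purified cruzain at 1.5 nM, pre-incubated 15 min with compound at room temperature in 100 mM sodium acetate pH 5.5, 5 mM DTT, 0.00005% Triton X-100. Reaction started with 2 uM Z-FR-AMC; AMC fluorescence increase over 60 s gives rate.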
SARS PLP yeast: SARS-CoV PLP inhibition in yeast; S. cerevisiae expressing SARS-CoV PLpro, growth rescue; control for the full effect not named in the record; Potency, µM (highest dose often 32.9 µM), without a hit: at the top dose activity, positive = growth rescue; 330,000 compounds, 0.19% hits; active means well fitted rising curve with a large enough effect; inconclusive means small, poorly fitted or top-dose-only effect; inactive means no such curve, though single readings can be large or run the other way; also: 0% is about no effect; nearly all actives have a fitted effect of over 55% in size; growth read by luminescence after 48 h
Starred values were filed as active, the others as inactive; ? = inconclusive; . = no result given; & = joins results of further samples; [ ] = remark or other dose. Unless noted, calls follow the shape of the dose curve; as a rule, active = well fitted curve in the direction sought with a large enough effect; inconclusive = small, poorly fitted or top-dose-only effect, or another doubt; inactive = no such curve, though single readings can be large; an effect the other way counts as inactive or inconclusive. Potency is read from the fitted curve at half-maximal effect.

SMILES | RE007 growth inh | Cruzain inh Det | NS1 function inh | Marburg entry inh | StopGo reporter | LASV entry inh | Cruzain inh noDet | SARS PLP yeast
O=C(COC(=O)Cn1cnc2ccccc2c1=O)Nc1cc(Cl)ccc1[N+](=O)[O-] | 4% | -8.9% | -30% | -2% | -19% | -14% | -19% | 7%
CC(C)c1ccc(/C=C/C(=O)NCCC2=CCCCC2)cc1 | 38% | -6.5% | 7% | 11% | -2% | -27% | 2% | -20%
Cn1c(=O)c2[nH]c(SCCN3CCCCC3)nc2n(C)c1=S | -9% | . | . | 5%[46.1 µM] | -6% | 4%[46.1 µM] | . | .
CCOc1ccc(N(C(C)C(=O)N2CCOCC2)S(C)(=O)=O)cc1 (configuration not stated) | 11% | . | -2% | -3% | -9% | ? | . | -2%
CCCN(CCO)Cc1ccc2ccccc2c1 | 18% | -0.1% | 1% | ? | . | -18% | 2% | 1%
Cc1c(C(=O)Nc2c(C)n(C)n(-c3ccccc3)c2=O)oc2c(Cl)cccc12 | -5% | . | 10% | 19% | -15% | -4% | . | 3%
NCC(O)CN1CCN(Cc2ccccc2)CC1 (configuration not stated) | 9% | . | -1% | ? | -19% | -22%[46.1 µM] | . | 2%
N#CCc1ccc(NC(=O)c2cc(S(=O)(=O)N3CCOCC3)ccc2Cl)cc1 | -7% | . | 4% | -22% | ? | -18% | . | -4%
COc1cccc(-n2c(=O)c3cc(OC)c(OC)cc3n(CC(=O)Nc3ccc(F)cc3)c2=O)c1 | . | -0.9% | . | 4%[46.1 µM] | -1% | -15%[46.1 µM] | -10% | .
CCCC(=O)C1C(=O)CC(C)(C)C(c2cc(C)no2)C1=O (configuration not stated) | -4% | 1.0% | -70% | 4% | 0% | 9% | 6% | ?
CC12CCC(C(N)=O)(C1Br)C2(C)C (configuration not stated) | 19% | 0.6% | 18% | ? | -9% | 15% | -8% | 1%
O=C(Nc1ccc(-n2cc(Br)cn2)cc1)c1ccncc1 | 2% | . | 4% | . | -27% | . | . | -8%
CCC(=O)Nc1ccc(N2CCN(C(=O)c3cccs3)CC2)cc1 | 5% | . | 0% | . | -4% | . | . | 1%
Cc1cccc(OCC(=O)N2CCN(Cc3cccnc3)CC2)c1 | -16% | . | -1% | 13% | 20% | 24% | . | -1%
COc1ccc(CC(=O)N2CCN(c3ccccn3)CC2)cc1 | -4% | 3.0% | 2% | 11%[46.1 µM] | 12% | 7% | -17% | -3%
Cc1ccc(N2CC(C(=O)N3CCC(C(=O)NCCCOC(C)C)CC3)CC2=O)cc1 (configuration not stated) | 0% | . | 8% | -1%[46.1 µM] | -2% | ? | . | 0%
O=C(NCCc1ccc(F)cc1)C1CCCCC1 | 22% | . | 0% | 2%[46.1 µM] | 29% | 25% | . | 0%
COC(=O)c1ccccc1NC(=O)COc1ccccc1 | -10% | -5.8% | -81% | -3% | 16% | -11%[14.3 µM] | 8% | -9%
COc1ccc(-c2nc(CNS(=O)(=O)c3ccc(OC)c(OC)c3)cs2)cc1 | 2% | -1.8% | 3% | . | -12% | . | 0% | 3%
COc1ccc(/C=C/C(=O)Nc2ccccc2C)cc1S(=O)(=O)N1CCOCC1 | -16% | . | -6% | -4% | ? | . | . | -1%
CC1CN(S(=O)(=O)c2cccc(C(=O)Nc3ccc4c(c3)CCC4)c2)CC(C)O1 (configuration not stated) | -2% | -7.2% | -3% | 11µM* | 11% | ? | ? | -34%
O=C(NC1CCCCC1)c1cccs1 | -17% | 4.9% | 4% | 35%[46.1 µM] | 48%[activator] | 14% | -4% | -11%
COc1ccc(S(=O)(=O)N2CCCCCC2)cc1NC(=O)Cc1ccc(OC)c(OC)c1 | -11% | . | . | ? | -15% | ? | . | -17%
O=C(O)c1csc(-n2nc(-c3ccccc3)cc2C(F)(F)F)n1 | 23% | . | -6% | . | -14% | . | . | 1%

Looked up by structure from the list above, 4 records:
SMILES | RE007 growth inh | Cruzain inh Det | NS1 function inh | Marburg entry inh | StopGo reporter | LASV entry inh | Cruzain inh noDet | SARS PLP yeast
O=C(NC1CCCCC1)c1cccs1 | -17% | 4.9% | 4% | 35%[46.1 µM] | 48%[activator] | 14% | -4% | -11%
O=C(NCCc1ccc(F)cc1)C1CCCCC1 | 22% | . | 0% | 2%[46.1 µM] | 29% | 25% | . | 0%
Cc1ccc(N2CC(C(=O)N3CCC(C(=O)NCCCOC(C)C)CC3)CC2=O)cc1 (configuration not stated) | 0% | . | 8% | -1%[46.1 µM] | -2% | ? | . | 0%
COc1ccc(-c2nc(CNS(=O)(=O)c3ccc(OC)c(OC)c3)cs2)cc1 | 2% | -1.8% | 3% | . | -12% | . | 0% | 3%

More compounds follow.
SMILES | RE007 growth inh | Cruzain inh Det | NS1 function inh | Marburg entry inh | StopGo reporter | LASV entry inh | Cruzain inh noDet | SARS PLP yeast
CCCCCOC(=O)c1ccccc1C(=O)O | 23% | 2.1% | -10% | -3% | -6% | ? | -10% | 11%
COc1ccc(C)cc1NC(=O)C(OC(=O)CNC(=O)c1cc(C)cc(C)c1)c1ccccc1 (configuration not stated) | 0% | 8.9µM* | -1% | ? | -15% | -14% | 20µM* | -5%
CSc1ccc(C(=O)N2CCC(CCC(=O)NC3CC3)CC2)cc1 | 7% | . | 0% | . | -1% | . | . | -5%
Cc1ccc(-c2nc3ncccc3o2)cc1NC(=O)CC(C)C | 5% | -5.6% | 27% | 1% | -15% | 0% | -23% | 13%
CCCCN(CC)Cc1ccc(CNC(=O)Nc2ccc(OC)cc2OC)o1 | -4% | 5.5% | -2% | -5% | -11% | 3% | 2% | -3%
Cn1cccc1CNC(=S)Nc1ccccc1Cl | 19% | . | . | 1%[46.1 µM] | 7% | 3% | . | 4%
COc1cccc(OCCn2cc(C=O)c3ccccc32)c1 | 11% | . | ? | ? | 4% | ? | . | -4%
Cc1ccccc1OCCC(=O)OCC(=O)NC1CCCCC1 | ? | . | . | -16% | 8% | ? | . | 0%
COc1ccc(C(O)P(=O)(OCC(C)C)c2ccc(N(C)C)cc2)c(OC)c1 (configuration not stated) | 3% | . | 3% | 3% | 30%[activator] | . | . | -1%
Fc1ccc(CSc2nncn2NC/C=C/c2ccccc2)cc1 | 8% | -6.0% | -4% | -20% | -10% | -5% | -4% | -5%
Cc1cc(C(=O)Cn2nc(C(=O)O)c3ccccc3c2=O)c(C)n1C1CC1 | -1% | . | . | -4% | 45%[activator] | ? | . | 0%
O=C(O)/C=C/C(=O)Nc1ccc(-n2ccc(C(F)(F)F)n2)cc1 | 2% | . | -1% | . | 1% | . | . | -3%
O=C(NC1CCCC1)c1ccc(CS(=O)(=O)c2ccc(Cl)cc2)o1 | -3% | . | 1% | . | -12% | . | . | -1%
O=C(Nc1ccc([N+](=O)[O-])c(NC(=O)c2cccnc2)c1)c1cccnc1 | 6% | . | . | 16%[46.1 µM] | -9% | -17%[46.1 µM] | . | .
COc1ccc(/C=N/NC(=O)c2cccc(OC(F)(F)C(F)F)c2)cc1O | 3% | -5.6% | 5% | 30% | -15% | ? | -7% | -4%
O=[N+]([O-])c1cc(Cl)cc(/C=N/NC(=S)Nc2ccc(S(=O)(=O)N3CCOCC3)cc2)c1O | 1% | . | -8% | . | -26% | . | . | 9%
Cc1ccc(S(=O)(=O)Nc2ccc3c(c2)CCC3)cc1C | 14% | -13% | -13% | 8% | 60%[activator] | 4% | 1% | -89%
COC(=O)c1ccc(NS(=O)(=O)c2ccc(-c3cc(C)no3)s2)cc1 | 26% | . | 10% | . | 13% | . | . | -3%
CCOC(=O)c1c(C)oc2nc(C)nc(NCCCN3CCN(c4cccc(C)c4)C(C)C3)c12 (configuration not stated) | . | 0.0% | . | . | -24% | -11%[46.1 µM] | -2% | .
N#Cc1cc(N)ccc1Sc1ccccc1 | -8% | -2.2% | -19% | -12% | 13% | 11% | -8% | 1%
Cc1ccc(S(=O)(=O)NCCc2nnc3ccc(SCc4cccnc4)nn23)cc1 | -15% | . | 4% | -7%[46.1 µM] | -3% | -3%[46.1 µM] | . | 1%
CCCCN1C(=O)NC(NC(=O)C2CC2)(C(F)(F)F)C1=O (configuration not stated) | 20% | . | . | ? | -10% | 2%[46.1 µM] | . | -2%
OCC1OC(n2cnc3c(N4CCCCC4)ncnc32)C(O)C1O (configuration not stated) | 35% | . | . | 5% | -7% | 18% | . | .
CC(C)Sc1nnc(CNC(=O)C23CC4CC(CC(C4)C2)C3)n1C1CCCCC1 | 1% | -5.9% | -7% | 5% | -15% | 4% | ? | -9%
COc1ccc(CNC(=O)COC(=O)Cc2ccsc2)cc1 | ? | . | . | 2%[46.1 µM] | -2% | 18%[46.1 µM] | . | 0%
O=C(Nc1ccc(N2CCOCC2)c(Cl)c1)c1ccc(-n2cnnc2)cc1 | -5% | . | 7% | . | -17% | . | . | 3%
COc1ccc(N2CCN(C(=O)CN(c3cccc(Br)c3)S(C)(=O)=O)CC2)cc1 | 0% | -0.1% | 3% | -2% | . | ? | ? | 2%
CCOC(=O)c1c(C)[nH]c(C(=O)N/N=C/c2ccc(OC)c(OC)c2)c1C | 5% | . | 1% | . | 4% | . | . | 1%
O=C(CN1C(=O)COc2ccc(S(=O)(=O)N3CCCCCC3)cc21)Nc1cccc(Cl)c1 | . | -5.8% | . | . | -1% | -18%[46.1 µM] | -6% | .
CCn1c(CCC(=O)Nc2cc(F)ccc2C)nc2cc(S(=O)(=O)N(C)C)ccc21 | 16% | -3.9% | -6% | -11%&-11% | -14% | 0% | 10% | 8%
N#Cc1cc2cc3c(cc2nc1NCCNC(=S)NCCCN1CCOCC1)OCO3 | -20% | . | ? | . | -5% | . | . | -1%
CCOC(=O)C(=CNc1cc(C)ccc1-n1cccc1)C(=O)OCC | -15% | . | -4% | 27%[14.2 µM] | ? | -18% | . | 5%

No enrichment for hits, and some 4.7% of all compounds hit somewhere here.
